# Source: PubChem BioAssay
# Prx2 Sm inh = Schistosoma mansoni Prx2 inhibition; S. mansoni Prx2 activity coupled to TGR/GSH (TGR is thioredoxin glutathione reductase), NADPH fluorescence loss, qHTS; some inactives read as strong as hits; Potency, µM; hit rate 0.07% among 65,000; AID 448; active means full or partial inhibition curve with a strong effect at the top dose; inconclusive means weaker partial or single-point curve; inactive means no accepted curve; further: series up to 57 µM; many of its hits are not listed in these tables
#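 Purified S. mansoni TGR and Prx2 in pH 7.4 phosphate buffer with EDTA and Tween-20 were preincubated with compounds for 15 min. Further NADPH/GSH was added, then a 2.5 mM H2O2 aliquot initiated turnover, followed kinetically by NADPH fluorescence.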
# Anthrax LT inh = blocks cellular internalization of anthrax lethal toxin; Potency, µM (titrated, usually from 40 µM), for the others: top-dose activity change, negative = inhibition, usual class: inhibitors; hit rate 0.67% among 70,000; Cells, anthrax lethal toxin internalization, FRET ratio (460/530); active = well fitted falling ratio curve with the 530 nm signal flat; inconclusive = other ratio curves, or a change in one channel alone; inactive = flat curves in the ratio and both channels; the % refers to the ratio; further: on the % scale 0 is the no-effect control and ±100 the full control effect; nearly all actives have a fitted effect of over 50% in size; tested in ME-180 cells; beta-lactamase reporter
# * marks the source's active call; other numbers are inactive results; ? = inconclusive; . = not tested or not shown; & = joins results of further samples; [ ] = dose if it differs, or a comment. Potency means the concentration at half of the fitted maximal effect. These rows are one share of the data (hit frequency here may not be typical).
SMILES	Prx2 Sm inh	Anthrax LT inh
O=C1CC(N2CCN(Cc3ccccc3)CC2)C(=O)N1c1ccccc1 (centres undefined)	.	?
Cc1ccc(-c2csc3ncn(-n4c(C)ccc4C)c(=O)c23)o1	>57	?
COc1cccc(-c2cc(C(=O)Nc3cc(C)n(Cc4ccc(Cl)cc4)n3)no2)c1	>57	?
O=C(Cc1cccs1)Nc1ccc(-c2nnn(CC(=O)N3CCOCC3)n2)cc1	>57	-9%
CSc1ccc(C(=S)N2CCN(C)CC2)cc1	>57	-6%
Cc1ccc(CN(C(=O)c2c(F)cccc2F)C2CC(C)(C)NC(C)(C)C2)o1	>57	2%
Cc1ncc(CC(=O)n2cc(C(=O)c3cc(Cl)ccc3O)cn2)s1	>57	-6%
COc1cccc(-n2c(Cc3cc(=O)[nH]c(=O)[nH]3)nnc2SCC(=O)N2CCC(C)CC2)c1	>57	14%
Cc1nn(-c2ccccc2)c(C)c1P(=O)(c1ccccc1)N(C)C (centres undefined)	>57	6%
COc1ccc(Cl)cc1Nc1cc(C)nc2nc(C)nn12	>57	13%
COc1ccc(S(=O)(=O)NCc2ccccc2Cl)cc1OC	>57	-7%
COc1ccc(CNc2ncnc3ccc(-c4ccc(N(C)C)cc4)cc23)c(OC)c1	>57	?
COc1cccc(OC)c1C(=O)Nc1ccccc1C(=O)N1CCOCC1	>57	.
CCCCn1nnnc1SCC(=O)Nc1ccc2c(c1)OCO2	>57	9%
CC(=O)Nc1ccc(C(=O)CCl)cc1	.	13µM*
FC(F)(F)c1cnc(Oc2ccc(-c3nnco3)cc2)c(Cl)c1	>57	-10%
CN(C)CCCOC(=O)c1ccc(Cl)cc1	.	-19%
CC(OC(=O)C(NC(=O)c1ccco1)C(C)C)C(=O)Nc1ncc(Cl)cc1Cl (centres undefined)	>57	23%
OCC(Cl)CCl (centres undefined)	.	?
Nc1cc(C(=O)OCC(=O)NCC2CCCO2)ccc1Cl (centres undefined)	>57	-14%
Cc1cccc(N(C)C(=O)COc2cc(=O)n(C)c3ccccc23)c1	>57	9%
Clc1ccc(Cn2ncc3c(N4CCCCC4)ncnc32)c(Cl)c1	>57	-10%
CCOc1ccc(-c2nnc3sc(COc4ccc(C)cc4)nn23)cc1	>57	3%
O=C(Cn1nnc(-c2ccccc2)n1)Nc1ccccc1N1CCOCC1	>57	-6%
CC(C)c1nc2ccccc2c2nnc(SCC(=O)NCc3ccco3)n12	>57	6%
CCC(Cl)CC(Cl)C(Cl)C(Cl)C(Cl)C(C)Cl (centres undefined)	.	2.5µM*
COc1ccc(-c2cc3ccc(OCc4nn[nH]n4)cc3oc2=O)cc1	>57	?
COc1cccc(CNC(=O)CCS(=O)(=O)c2cccc3nsnc23)c1	>57	-2%
N[C@H](C(=O)O)c1cccc(O)c1	>57&>57	?
O=C(CN1C(=O)C2C3C=CC(C3)C2C1=O)Nc1ccc2nccnc2c1 (centres undefined)	>57	7%
NC(=O)c1cccc([N+](=O)[O-])c1	.	-6%
O=C(COn1nnc2ccccc21)NCC1CCCCC1	>57	10%
CC1(C)CC(=O)C2=C(C1)Oc1ncn3nc(-c4cccnc4)nc3c1C2c1ccccc1 (centres undefined)	>57	.
CCS(=O)(=O)N1CCC(C(=O)NCCc2ccccc2)CC1	>57	-3%
COc1ccc(CC(=O)Nc2cc(C)ccn2)cc1	>57	8%
CCCc1nnc(SCC(=O)N2CCCC(C)C2)n1CCCOC (centres undefined)	>57	-13%
CCOC(=O)N1CCN(C(=O)c2ccc(Cl)c(S(=O)(=O)Nc3ccccc3)c2)CC1	>57	?
O=C(NCCN1CCCC1)C1CC(=O)N(C2CCCCC2)C1 (centres undefined)	>57	-1%
CCOC(=O)C1CCN(C(=O)c2cc3cc4cc(OC)ccc4nc3o2)CC1	>57	30%
CCOC(=O)c1c(C)oc2c1c(C=NC1CCS(=O)(=O)C1)c(O)c1ccccc12 (centres undefined)	>57	3%
O=C(C1CCN(c2ccc(N3CCOCC3)nn2)CC1)N1CCN(c2ccc(F)cc2)CC1	>57	?
CCCn1nnc(NC(=O)c2sc3ccccc3c2Cl)n1	>57	-6%
CCC1(C(=O)OC)NC(c2cccc(F)c2)C2C(=O)N(C)C(=O)C21 (centres undefined)	>57	-8%
CC(C)c1ccccc1OCCCCCNCCO	.	-10%
COc1ccccc1-n1c(SCC(=O)N(C)C2CCS(=O)(=O)C2)nc2ccccc2c1=O (centres undefined)	>57	9%
CCc1ccccc1OCc1nnc(N)s1	>57	2%
Cc1ccc(CC(=O)NCC(C)C)cc1	>57	1%
CN(C)S(=O)(=O)N1CCN(S(=O)(=O)c2ccccc2)CC1	>57	7%
COC(=O)c1ccc(NC(=O)C2C3C=CC(O3)C2C(=O)O)cc1 (centres undefined)	>57	-13%
Cc1cc(N2C(=O)CCC2=O)n(-c2ccccc2)n1	>57	-8%
O=P(C(c1c[nH]c2ccccc12)N1CCOCC1)(N1CCOCC1)N1CCOCC1 (centres undefined)	>57	0%
COc1cccc(Nc2ncc3nc(C)c(=O)n(-c4ccccc4)c3n2)c1	>11	7%
Cc1cccc(NC(=O)CCCCCN2C(=O)c3ccccc3C2=O)n1	>57	?
Cc1nc2c(ccc3nc(NC(=O)c4ccc(S(=O)(=O)N(C)C)cc4)sc32)s1	>57	-3%
CCCCOC(=O)CSc1nnc(-c2cc(OC)c(OC)c(OC)c2)o1	>57	?
CC(=O)c1sc(NC(=O)C=C(C)C)nc1C	>57	-1%
O=C(CCC(=O)OCC(F)(F)C(F)F)NCc1ccccc1	.	-9%
CS(=O)(=O)N(CCc1ccccc1)CC(=O)N1CCN(c2ccccc2)CC1	>57	2%
Cc1ccc(O)c(-c2cc(C(=O)NCc3ccncc3)[nH]n2)c1	>57	2%
CCOC(=O)C1C(=O)CC(C)(O)C(C(=O)OCC)C1c1ccc(C)s1 (centres undefined)	>57	6%

# Continued:
SMILES	Prx2 Sm inh	Anthrax LT inh
COc1cc(OC)c(C(=O)Nc2ccc(N(C)C)cc2)cc1OC	>57	-18%
O=S(=O)(Nc1nc2ccccc2nc1NCc1ccco1)c1ccccc1	>57	8%
Cc1cc(OCC(=O)NCCN2CCOCC2)ccc1Br	>57	-5%
CCOC(=O)c1c(NC(=O)c2ccc(Br)o2)sc(C)c1CC	.	5µM*
O=C(NCCCN1CCOCC1)c1c(F)cccc1F	>57	-6%
C[C@@](Cc1ccc(O)c(O)c1)(NN)C(=O)O	>57	?
C/C(N)=C(/C#N)C(=O)CSc1nnc(Nc2c(C)cccc2C)s1	>57	-17%
CSc1ccc(Cl)c(C(=O)OCC(=O)N2CC(C)OC(C)C2)c1 (centres undefined)	>57	-11%
CCn1c(C)nc2cc(-c3nc4n(n3)Cc3ccccc3-4)ccc21	>57	-7%
CCOC(=O)c1ccc(NC(=O)CSc2n[nH]c(-c3ccncc3)n2)cc1	>57	22%
COc1ccc(NC(=O)C2C(=O)NC3(C)CC2c2ccccc2O3)cc1 (centres undefined)	>57	?
CCCS(=O)(=O)n1nc(-c2ccc(OC)cc2OC)cc1N	>57	18%
CCN(CC)S(=O)(=O)c1cc(C(=O)Oc2ccccc2OC)ccc1OC	.	?
COc1cc(C2C(=O)N(C3CCCC3)CC(=O)N2Cc2ccco2)ccc1OC(C)C (centres undefined)	>57	14%
COc1ccc(NC2CCN(C3CC(=O)N(c4ccc(F)c(Cl)c4)C3=O)CC2)cc1 (centres undefined)	>57	-15%
COCC(C)NC(=O)c1cc(-c2cccc(OC)c2)on1 (centres undefined)	>57	7%
O=C(CCCc1nc2ccccc2s1)N1CCN(S(=O)(=O)c2cccs2)CC1	>57	?
O=c1c(-c2cccs2)nc2cncnc2n1Cc1ccc(F)cc1	>57	?
CCOC(=O)NC(Nc1nnc(SCC)s1)(C(F)(F)F)C(F)(F)F	.	-14%
CC1CCN(c2nncc3ccccc23)CC1	>57	-3%
Cc1cc(NC(=O)CSc2nnc(-c3ccco3)n2Cc2ccco2)no1	>57	4%
CCOc1ccccc1N(CC(=O)Nc1ccccc1C(=O)NCc1ccco1)S(C)(=O)=O	>57	-6%
CCCCCC1NC(=O)NC1CCCCCC(=O)O (centres undefined)	>57	2%
Cc1cnc(CNc2nc(-c3ccccc3Cl)nc3ccccc23)cn1	>57	-4%
O=C(CCc1ccccc1)NC1CCSC1=O (centres undefined)	.	-8%
CC12CCC(=O)N1c1ccccc1C(=O)N2c1ccccc1 (centres undefined)	>57	9%
Cc1oc(-c2ccc3c(c2)OCCO3)cc1C(=O)O	>57	17%
CCC/C=C(\CCC)C(NC(=O)c1ccccc1)c1ccc(C(=O)OC)cc1 (centres undefined)	>57	-13%
NC(N)=NC(N)=Nc1ccc(C(=O)O)cc1	>57	-7%[8 µM]
N#CN=C1SCCS1	>57	5%

# 5 entries from above in a different format:
# Each structure is followed by: Prx2 Sm inh, Anthrax LT inh
- O=c1c(-c2cccs2)nc2cncnc2n1Cc1ccc(F)cc1
    >57, ?
- CCOC(=O)c1ccc(NC(=O)CSc2n[nH]c(-c3ccncc3)n2)cc1
    >57, 22%
- CC1CCN(c2nncc3ccccc23)CC1
    >57, -3%
- CCC/C=C(\CCC)C(NC(=O)c1ccccc1)c1ccc(C(=O)OC)cc1 (centres undefined)
    >57, -13%
- CCN(CC)S(=O)(=O)c1cc(C(=O)Oc2ccccc2OC)ccc1OC
    ., ?

# (more compounds)
SMILES	Prx2 Sm inh	Anthrax LT inh
CC(C)c1nc(N2CCN(C(=O)c3ccco3)CC2)c2c3c(sc2n1)CCCC3	>57	?
CCCCNC(NCCCC)=C(S(=O)(=O)CC)S(=O)(=O)CC	.	-8%
CN(C)c1ccc(-c2ccncc2)cc1	.	-1%
CCOC(=O)Cn1nc(-c2ccc(Cl)cc2)cc1N	>57	-8%
Cn1c(=O)oc2cc(S(=O)(=O)NCCCN3CCCC3=O)ccc21	>57	15%
C[N+](C)(C)CCOC(N)=O	>57&>57	2%[3.58 µM]
COC(=O)N1C2(C=CC1(C)C(=O)NCc1ccc(N(C)C)cc1)CCCCC2 (centres undefined)	.	-14%
c1cncc(CNc2ccnc(-c3cccnc3)n2)c1	>57	13%
CCOc1cccc2cc(C(=O)N3CCN(C/C=C/c4ccccc4)CC3)c(=O)oc12	>57	-17%
COc1cc(-c2noc(CCC(=O)Nc3cccnc3)n2)cc(OC)c1OC	>57	6%
O=C(CC1SC(N2CCCCC2)=NC1=O)Nc1cccc(C(=O)O)c1 (centres undefined)	>57	1%
CCC(=O)N1c2ccc(S(=O)(=O)CCC(=O)N3CCC4(CC3)OCCO4)cc2CC1C (centres undefined)	>57	0%
O=C(CSc1nnc(-c2ccccn2)n1-c1ccccc1)Nc1ccc2c(c1)OCO2	>57	-5%
CCCOC(=O)c1ccc(NS(=O)(=O)c2cccs2)cc1	>57	2%
O=C(CCN1C(=O)C2C3C=CC(C3)C2C1=O)N1CCN(c2ccccc2F)CC1 (centres undefined)	>57	10%
CCN(Cc1cc2cc(OC)ccc2[nH]c1=O)C(=O)Cc1ccc(OC)cc1	>57	-5%
Cc1cc(C(=O)CSc2nnc(-c3ccccc3)n2C)c(C)n1C	>57	-7%
Cc1nc(N2CCN(c3ccccc3)CC2)c2c3c(sc2n1)CCC3	.	?
Cc1cc(C)c2c(n1)nn1c(NCCN3CCOCC3)cc(C)nc21	>57	?
COc1ccc(N2CCN(C(=O)c3cn(C4CCCC4)c(=O)c4c3c3ccccc3n4C)CC2)cc1	>57	?
COc1ccc(C)cc1NC(=O)c1ccc2c(c1)OCO2	>57	-15%
CCOc1ccccc1-n1c(SCC(=O)N2CCCC2)nnc1-c1ccoc1C	>57	-10%
CCOC(=O)c1c(C)[nH]c(C(=O)Cn2nnc(-c3ccccc3Cl)n2)c1C	>57	-2%
C=CCCCC	.	-7%
CCc1ccc(NC(=O)Cn2c(SC)nc3ccccc32)cc1	>57	?
COC(=O)c1cc(OC)c(OC)cc1NC(=O)c1ccoc1C	>57	2%
CC1CCN(CCc2nc3cc(NS(=O)(=O)c4ccc(F)cc4)ccc3n2C)CC1	>57	-2%
Cn1c(SCC(N)=O)nnc1C1CCN(C(=O)NC2CCCCC2)CC1	>57	-1%
Cc1ccc(S(=O)(=O)NCC(=O)N(CC(=O)NC2CCCC2)c2ccc3c(c2)OCCO3)cc1	>57	4%
CCn1cc(C(=O)N(CCCN2CCOCC2)Cc2ccco2)c(=O)c2ccc(C)nc21	>57	0%
Cc1cc(C)c2[nH]c(=O)c(CN(CC3CCCO3)C(=O)c3cnccn3)cc2c1 (centres undefined)	>57	8%
Cc1cc(Cl)c(S(=O)(=O)Nc2ccc3c(c2)OCO3)cc1OCC(N)=O	>57	-9%
NC(=O)CSc1nnc(-c2cccnc2)n1CCc1ccccc1	>57	-2%
N=C(N)S/C=C\C(=O)O	>57	?
